Screening data as filed in PubChem BioAssay.
HSD17B inhib: qHTS Assay for Inhibitors of HSD17B4, hydroxysteroid (17-beta) dehydrogenase 4; recombinant HSD17B10, NADH fluorescence kinetic; many of its hits are not listed in these tables; Potency, µM (doses to about 57.1 µM), inactives show at the top dose activity change, negative = inhibition, usual class: inhibitors; hit rate 7.6% among 75,000; active means well fitted inhibition curve with a large enough effect; inconclusive means small, poorly fitted or top-dose-only effect; inactive means no such curve, though single readings can be large or run the other way;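 further: the protocol describes HADH2 (HSD17B10) and not the HSD17B4 of the title; nearly all actives have a fitted effect of over 70% in size; most hits overshoot -100% by far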
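His-tagged E. coli-expressed HADH2 at 20 nM in 100 mM Tris-HCl pH 9.0 with 0.01 % Tween-20, preincubated 15 min with compound at room temperature. Reaction with 1 mM NAD+ and 90 uM beta-hydroxybutyryl coenzyme A; NADH fluorescence (360/450 nm) read kinetically over 4 min, last minus first point.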
An asterisk follows results filed as active; i = inactive; ? = inconclusive; [ ] = remark or other dose. On the % scale 0 is the no-effect control and ±100 the full control effect; potency means the concentration at half of the fitted maximal effect. Some of the compounds tested; rates above refer to the full screens.

SMILES	HSD17B inhib
CCCCCCC(=O)NCC(=O)OCC(=O)c1ccccc1	-11%
O=C(C1CCCN(S(=O)(=O)c2cccc3nonc23)C1)N1CCC(Cc2ccccc2)CC1 (stereo not drawn)	2%
COc1ccccc1NC(=O)c1ccccc1NS(=O)(=O)N1CCCC1	-22%
CC12CN(C(=O)c3ccccc3)C3(C#N)CC1CCC23C (stereo not drawn)	3%
CCCCn1c(SCc2cc(=O)[nH]c3ccccc23)nc2c1c(=O)n(C)c(=O)n2C	5%
CS(=O)(=O)Nc1cccc(-c2nccc(-n3ccnc3)n2)c1	?
CCc1nc(SCC(=O)NCc2ccco2)c2c(=O)n(C)c(=O)n(C)c2n1	5%
COc1ccc(OC)c(S(=O)(=O)NCc2cn3c(C)csc3n2)c1	-2%
COc1ncc2nc(-c3ccc(Cl)cc3)c(=O)n(CCc3ccccc3)c2n1	-29%
CN1CCCC(n2nc(Cc3ccc(Cl)cc3)c3ccccc3c2=O)CC1 (stereo not drawn)	-1%
CCOC(=O)C1CCN(Cc2nc3ccccc3c(=O)n2-c2ccc(OCC)cc2)CC1	0%
Cn1nc(-c2ccc(OCC(=O)Nc3cccnc3)cc2)c2ccccc2c1=O	-11%
Cc1ccc(C(=O)CSc2nnc(-c3ccco3)n2CC2CCCO2)cc1 (stereo not drawn)	?
Cc1nc2ccc(S(=O)(=O)NCC(=O)N3CCN(c4ccccn4)CC3)cc2s1	0%
Cc1oc(-c2cccc(Cl)c2)nc1CN1CCCC(C(=O)NCc2ccco2)C1 (stereo not drawn)	0%
Cc1c(N(C)C)nc2ccccc2c1N	-5%
COc1ccc(O[C@H]2C=C[C@@H](c3ccccc3)O[C@H]2CO/N=C2/c3cc(OC)ccc3O[C@@H](c3cccc(OC)c3)[C@H]2O)cc1	2%[11.4 µM]
COc1ccc(-c2nc(C#N)c(NCCc3ccccc3)o2)cc1OC	25µM*
COc1cc(S(=O)(=O)N(Cc2ccco2)C2CCCC2)ccc1-n1cnnn1	0%
Cc1cccc(C2CC(c3ccccc3)Nc3nc(N)nn32)c1 (stereo not drawn)	-13%

By substructure: the compounds so far containing two or more sulfur atoms.
SMILES	HSD17B inhib
COc1ccc(OC)c(S(=O)(=O)NCc2cn3c(C)csc3n2)c1	-2%
Cc1nc2ccc(S(=O)(=O)NCC(=O)N3CCN(c4ccccn4)CC3)cc2s1	0%

Next part
SMILES	HSD17B inhib
CCCCC[C@H](O)/C=C\[C@H]1[C@H](C/C=C\CCCC(=O)O)[C@@H](O)C[C@H]1O (tested in a mixture with another compound)	4%[25.6 µM]
O=C(COc1ccccc1Cl)Nc1ccc2c(c1)OCCO2	2%
C=CCN(C(=O)CNS(=O)(=O)c1ccccc1)C(C(=O)NCCOC)c1ccncc1 (stereo not drawn)	6%
CC(C)=CC(=O)Nc1ccc(Br)cc1	6%
O=C(Nc1ccccc1)Nc1ccccc1C(=O)NCc1ccco1	1%
O=[n+]1c2c(n([O-])c3cc(Br)ccc31)CCC2	?
Cc1nnc(NCc2ccco2)c2ccccc12	5%
COc1ccc(CN2C(=O)NC3(CCCCCC3)C2=O)cc1F	2%
COC(=O)c1cn(-c2ccccc2)nc1-c1cccnc1	12%
COc1cccc(-c2nnc(SCc3nc4ccccc4[nH]3)n2N)c1	2%
CSc1nc(=NC(C)=O)ss1	10%
COCCNc1nc(-c2ccccc2C(F)(F)F)nc2ccccc12	4%
C=CCOC(=O)C1=C(C)NC(SCC(=O)NC(=O)OCC)=C(C#N)C1c1cccnc1 (stereo not drawn)	i
O=C(CCS(=O)(=O)Cc1ccccc1)NCc1ccco1	0%
COc1cccc(NC(=O)C2CC(=O)N=C(N)S2)c1 (stereo not drawn)	1%
O=C(Oc1cccc(N2C(=O)CCC2=O)c1)C1CC(=O)N(c2ccc(Br)cc2)C1 (stereo not drawn)	-2%
CCc1ccc(Nc2cc(C)nc3nc(C)nn23)cc1	-4%
Cn1c(=O)oc2cc(S(=O)(=O)N3CCN(c4cccc(Cl)c4)CC3)ccc21	7%
O=C(CNC(=O)c1ccco1)OC(C(=O)c1ccccc1)c1ccccc1 (stereo not drawn)	5%
O=S1(=O)N=C(N2CCc3ccccc3C2)c2ccccc21	-4%

Rewritten with each value named: part of the list above
COc1ccccc1NC(=O)c1ccccc1NS(=O)(=O)N1CCCC1
  HSD17B inhib = -22%

C=CCN(C(=O)CNS(=O)(=O)c1ccccc1)C(C(=O)NCCOC)c1ccncc1 (stereo not drawn)
  HSD17B inhib = 6%

(next part)
SMILES	HSD17B inhib
O=c1c2c3c(sc2nc2sc(C4CC4)nn12)CCCC3	-8%
COCCCNC(=O)C1CC(=O)N(C2CCCC2)C1 (stereo not drawn)	3%
O=C(COc1ccc(-n2cnnn2)cc1)N1CCN(c2ccc(F)cc2)CC1	-3%
CCCC(=O)Nc1nc(C(=O)OCC)cs1	2%
CC(C)CCOCC(=O)Nc1cccc(C(=O)O)c1	36%[activator]
COc1cccc(NC(=O)C2C3CC4OC(=O)C2C4C3)c1 (stereo not drawn)	4%
O=C(O[C@@H](C(=O)O)[C@@H](OC(=O)c1ccccc1)C(=O)O)c1ccccc1	2%
COC(=O)c1cc(NC(=O)CC2SCCNC2=O)cc(C(=O)OC)c1 (stereo not drawn)	5%
Cc1cc(C(=O)COC(=O)c2n[nH]c3ccccc23)c(C)n1C	?
COc1cccc(-c2nnc(SCC(=O)N(C(C)C)C(C)C)o2)c1	-4%
O=C(CCN1CCc2ccccc2C1)Nc1cccc(F)c1	-13%
FC(F)(F)c1cnc2c(c1)Nc1ccccc1S2	-2%
CCc1cc2cc(C)cc(C)c2nc1SCC(=O)N1CCN(C(=O)c2ccco2)CC1	-3%
COc1cc(C(=O)Nc2ccc(NC(=O)C(C)C)nc2)cc(OC)c1OC	4%
CC(C)(C)NCCCCOc1ccccc1F	4%
CSc1ccc(CN2CCC(O)CC2)cc1	9%
COCCNC(=O)C1CC(=O)N(CCc2ccccc2)C1 (stereo not drawn)	-3%
CCCOC(=O)Nc1cc(OC)c(Cl)cc1OC	-4%
Cc1nnc(NC(=O)C2(c3ccccc3)CCOCC2)s1	?
c1cc2[nH]snc2c2nc(C3CC3)nc12	?

Pulled by compound from above:
SMILES	HSD17B inhib
COCCCNC(=O)C1CC(=O)N(C2CCCC2)C1 (stereo not drawn)	3%
CCCOC(=O)Nc1cc(OC)c(Cl)cc1OC	-4%
O=c1c2c3c(sc2nc2sc(C4CC4)nn12)CCCC3	-8%
Cc1cc(C(=O)COC(=O)c2n[nH]c3ccccc23)c(C)n1C	?
CCCC(=O)Nc1nc(C(=O)OCC)cs1	2%
O=C(O[C@@H](C(=O)O)[C@@H](OC(=O)c1ccccc1)C(=O)O)c1ccccc1	2%
COc1cccc(-c2nnc(SCC(=O)N(C(C)C)C(C)C)o2)c1	-4%

Other entries follow.
SMILES	HSD17B inhib
Cc1ccc2c(c1)N(CC(=O)NC1CCCCC1C)C(=O)CO2 (stereo not drawn)	2%
COc1ccc(OC)c(S(=O)(=O)NCCc2cn3ccsc3n2)c1	12%
O=C(COC(=O)C1=COCCO1)Nc1ncc(C(F)(F)F)cc1Cl	-12%
COC(=O)NC1(C(F)(F)F)NC(=O)N(C2CCCCC2)C1=O (stereo not drawn)	-1%
Oc1c(C(c2ccccc2)N2CCc3ccccc3C2)sc2ncnn12 (stereo not drawn)	-1%
CCOC(=O)c1ccc(NS(=O)(=O)CC)cc1	-10%
Cc1cc(C(=O)CN2C(=O)c3ccccc3S2(=O)=O)c(C)n1-c1ccccc1	3%
O=C(CCn1nnc(-c2cccs2)n1)NC1CCCCC1	1%
CCCCOc1ccc(C(O)(CCC)CCN2CCOCC2)cc1 (stereo not drawn)	3%
C=C(C)Cn1c(SCCCO)nc2c1c(=O)[nH]c(=O)n2C	-2%
CCC(Sc1ncccc1C(=O)O)C(=O)N1CCCC1 (stereo not drawn)	0%
CN(C)Cc1ccccc1-c1cncnc1Nc1ccccc1	?
CCCCNc1nc(C)nc2c1nc(-c1ccccc1)n2CCCN1CCCCC1C (stereo not drawn)	25µM*
CCN(CCCNC(=O)C1CCN(S(=O)(=O)CC)CC1)c1cccc(C)c1	2%
CCc1ccc(NC(=O)N(CCCOC(C)C)C2CCN(C(C)=O)CC2)cc1	6%
Cc1cccc2cc(CN(Cc3ccc4c(c3)OCO4)Cc3nnnn3C3CCCC3)c(=O)[nH]c12	-9%
Clc1ccc(-c2nnc(-c3cccc4ccccc34)o2)cc1Cl	3.2µM*
Cc1csc(NC(=O)c2ccc(C)c(S(=O)(=O)N3CCCCC3)c2)n1	-6%
Fc1ccc(C(OCCCc2cnc[nH]2)c2ccc(F)cc2)cc1	4%
COc1ccc(C2C(C(=O)N3CCN(c4ccccc4)CC3)c3ccccc3C(=O)N2C)cc1OC (stereo not drawn)	12%

SMILES	HSD17B inhib
CCOc1ccc(C(=O)Nc2ccc(N3CCN(C)CC3)cc2)cc1Br	32µM*
N#CC1=C(N)Oc2n[nH]c(-c3cccs3)c2C1c1cccs1 (stereo not drawn)	13µM*
CSc1nnc2c3cc(C)ccc3n(Cc3ccccc3)c2n1	12%
CN1C(=O)CC(C(=O)Nc2ccc(F)cc2)SC1=Nc1ccc2c(c1)OCO2 (stereo not drawn)	-5%
Cn1ccnc1C(=O)c1cc(=O)c2ccccc2o1	-1%
Cc1cccc(N2CCN(C(=O)c3cc4n(n3)C(C(F)(F)F)CC(c3ccco3)N4)CC2)c1C (stereo not drawn)	-4%
CCOC(=O)CNC(=O)c1nn(-c2cccc(OC)c2)c(=O)c2ccccc12	6%
N#CC(C#N)=c1ccc2c(c1)NC1(CCCCC1)N=2	-1%
CCOC(=O)c1nn(-c2ccccc2C)c(=O)c(C#N)c1C	6%
CO[C@H]1COC(=O)CCC[C@H](C)[C@H](OC)COC(=O)C/C=C\[C@@H]1C	5%[11.4 µM]
O=C(Cc1ccc(Cl)cc1)c1c(O)cc(O)cc1O	-11%
CCN(C(=O)CN1CCN(c2ccccc2)CC1)c1c(N)n(Cc2ccccc2)c(=O)[nH]c1=O	7%
CCOC(=O)C1CCN(c2cc(=O)n(C3CCCCC3)c(=O)[nH]2)CC1	6%
CC1S/C(=C(\C#N)C(=O)NCc2ccco2)N(Cc2ccco2)C1=O (stereo not drawn)	-10%
COc1ccc(OC)c(C2C(C(=O)Nc3ccc(F)cc3)=C(C)Nc3nc(CCCO)nn32)c1 (stereo not drawn)	-9%
CN(C)c1ncc2nc(-c3cn(C)c4ccccc34)c(=O)n(C[C@H]3CCCO3)c2n1	1%
Cc1nn(Cc2ccccc2)c2c1C(c1ccco1)C(C#N)=C(N)O2 (stereo not drawn)	1%
COCCn1cnnc1SCC(=O)c1ccc(S(=O)(=O)N2CCCC2)cc1	-15%
CSc1cccc(NC(=O)Nc2ccccc2)c1	72%[activator]
O=C1c2ccccc2NC(c2cnc3ccccc3n2)N1O (stereo not drawn)	-15%

SMILES	HSD17B inhib
CCN(CC)CCNC(=O)Cn1nc(Cc2cccnc2)c2ccccc2c1=O	-5%
CCCC(=O)Nc1cc(C)c(NC(=O)c2ccncc2)cn1	-2%
O=C(NCCCn1ccnc1)Nc1cccc(Cl)c1	-4%
COc1ccc(CC(=O)NCc2nnc(SCC(=O)N3CCN(c4ccccc4)CC3)n2C)cc1	3%
CCN(CC)CCNC(=O)CS(=O)Cc1nc(-c2ccc(C)cc2)oc1C (stereo not drawn)	-1%
C=CCOC(=O)C1=C(C)Nc2nnnn2C1c1cc(OC)ccc1OC (stereo not drawn)	2%
CN(Cc1ccccc1)Cc1ccccc1F	5%
O=C(O)[C@H]1CCCNC1	-5%
COc1nc(N)nc2c1ncn2[C@@H]1C[C@H](O)[C@@H](CO)O1	7%[11.4 µM]
CC(=O)Nc1cccc(NC(=O)CCn2cnc3cc(C)c(C)cc32)c1	0%
O=C(NC12CC3CC(CC(C3)C1)C2)C1CCCN1C(=O)NC1CCCCC1 (stereo not drawn)	-3%
CCc1nc(N2CCOCC2)c(C#N)c2c1COC(C)(C)C2	25µM*
Cn1c(=O)cc(N2CCc3ccccc32)[nH]c1=O	10%
Cc1ccnc(N2C(=O)c3ccccc3C2Nc2cccc(C)c2C)c1 (stereo not drawn)	14%
Cc1ccc(-n2c(-c3ccncc3)nnc2-c2ccco2)cc1	?
CCOC(=O)c1c(C)[nH]c(C)c1C(=O)CSc1nnnn1-c1ccccc1	3%
CC(C)CN(C(=O)COC(=O)Cc1n[nH]c(=O)c2ccccc12)C1CCS(=O)(=O)C1 (stereo not drawn)	4%
COc1cc2c(cc1OC)-c1cc3ccc(OC)c(OC)c3c[n+]1CC2	-9%
Cc1cc(N2CCN(C(=O)c3ccco3)CC2)n2nc(C)c(-c3ccc(Cl)cc3)c2n1	-9%
COc1cc(S(=O)(=O)N2CCCC3(CCCCC3)C2)ccc1-n1cnnn1	6%

SMILES	HSD17B inhib
CCCCNc1nc(C)nc2c1nc(-c1ccccc1)n2CC1CCN(C)CC1	25µM*
C[C@@]12CCC(=O)C[C@@H]1CC(=O)[C@H]1[C@H]3CCC[C@]3(C)C(=O)C[C@@H]12 (tested in a mixture with another compound)	4%[25.6 µM]
O=C(NC1CC1)c1scc2c1OCCO2	5%
C=CCN(CC=C)C(=O)c1ccncc1	5%
